Mtb growth: Mycobacterium tuberculosis H37Rv growth inhibition, cell based, confirmatory dose response (AID 1949); most inactive calls were filed without a number and no value below 0 was filed; inhibition, % at 10 µg/mL, or IC50 in µg/mL where a hit was titrated; hit rate 1.6% among 100,000;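 active means confirmed in a dose series; inconclusive means about 50% or more but not retested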;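 further: bacteria grown 7 days with compound before Alamar blue readout; 0% = untreated bacteria and 100% = reference antibiotic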
Numbers without * were called inactive; i = inactive; ? = inconclusive.

#	mol	Mtb growth
1	CC(C1CC1)N(C(=O)c1ccccc1O)c1ccccc1 (stereo not drawn)	2.1%
2	CC(C)Oc1ccc(C(=O)Nc2cccc(NC(=O)c3ccco3)c2)cc1	i
3	COc1cccc(CSc2nc3c(cc2C#N)CCCCC3)c1	5.2%
4	CC12COC3(C(=O)O)CC1CCC32C (stereo not drawn)	i
5	CN(c1ccccc1C(=O)Nc1cccc([N+](=O)[O-])c1)S(C)(=O)=O	i
6	O=S(=O)(Oc1cccc2cccnc12)c1ccc(I)cc1	i
7	CCc1ccc(NC(=O)N(c2ccccc2)c2ccccc2)cc1	i
8	Cc1ccc(NC(=S)Nc2ccc(F)cc2)c(C)c1	i
9	CC(NS(=O)(=O)c1ccccc1)C(=O)Nc1ccccc1F (stereo not drawn)	i
10	Cc1ccc(CSc2nnc(COc3ccc(C)cc3)n2C)cc1	11.7%

Arranged by length of the SMILES (low to high): part of the list above
#	mol	Mtb growth
4	CC12COC3(C(=O)O)CC1CCC32C (stereo not drawn)	i
8	Cc1ccc(NC(=S)Nc2ccc(F)cc2)c(C)c1	i
3	COc1cccc(CSc2nc3c(cc2C#N)CCCCC3)c1	5.2%
10	Cc1ccc(CSc2nnc(COc3ccc(C)cc3)n2C)cc1	11.7%
7	CCc1ccc(NC(=O)N(c2ccccc2)c2ccccc2)cc1	i
2	CC(C)Oc1ccc(C(=O)Nc2cccc(NC(=O)c3ccco3)c2)cc1	i
5	CN(c1ccccc1C(=O)Nc1cccc([N+](=O)[O-])c1)S(C)(=O)=O	i

Next part.
#	mol	Mtb growth
11	COC(=O)c1cn(CC(=O)NCCc2ccccc2)c2ccccc12	i
12	NC(=O)c1cc(SC(F)(F)F)cc(SC(F)(F)F)c1	0.6%
13	CCCNC(=S)Nc1ccc(CC(=O)OC)cc1	0.0%
14	Cc1cc(=O)oc2cc(OC(C(=O)c3ccccc3)c3ccc(Cl)cc3)ccc12 (stereo not drawn)	i
15	Cc1cc(Br)ccc1NC(=O)C(C)c1ccccc1 (stereo not drawn)	i
16	COc1cc(CNC(C)C23CC4CC(CC(C4)C2)C3)ccc1OCC(=O)NC(C)(C)C (stereo not drawn)	0.9%
17	N#Cc1c2n(c3c(N)ncnc13)CCCCC2	i
18	O=C(O)C1CCN(C(=O)c2ccc([N+](=O)[O-])cc2)CC1	i
19	COc1ccc(NC(=O)NCCc2ccccc2OC)c(OC)c1	4.0%
20	Cc1ccc(NC(=O)C(=O)NC(C)c2ccccc2)c(C)c1 (stereo not drawn)	i
21	COc1cccc(C#N)c1OCc1cccc(I)c1	13.3%
22	CS(=O)(=O)N(CC(=O)Nc1ccccc1C(=O)N1CCCC1)c1cccc(F)c1	i
23	Cc1ccc(NC(=O)c2ccc(Oc3ccc(C(F)(F)F)cc3[N+](=O)[O-])cc2)cc1	1.5%
24	Cc1ccc(CCNC(=O)c2ccc(C(F)(F)F)cc2)cc1	1.1%
25	O=C(Nc1ccc(Br)c(Cl)c1)C1CC(=O)N(c2ccccc2F)C1 (stereo not drawn)	i
26	Cc1cccc(-c2noc(COc3cc(C)c(Br)c(C)c3)n2)c1	i
27	COC(=O)c1ccc(C(=O)OC)c(NC(=O)c2ccc(CSc3ccccc3)cc2)c1	i
28	CC(=O)c1ccc(NC(=O)Nc2ccc(Br)cc2Cl)cc1	1.6%
29	CC(=O)c1ccc(NC(=O)COc2ccc(C3CCCCC3)cc2)cc1	i
30	c1ccc(C(Cc2nc(-c3cccnc3)no2)c2ccccc2)cc1	i
31	CS(=O)(=O)N1CCC(C(=O)N2CCCCCC2)CC1	i
32	Cc1ccc(NC(=S)NCC(C)C)cc1	1.1%
33	C/C(=N\N=C1\NC(=O)C(CC(=O)Nc2ccc(C(=O)O)cc2)S1)C1CCCCC1 (stereo not drawn)	i
34	COc1ccccc1C(=O)N(Cc1ccc(C)cc1)C1CCS(=O)(=O)C1 (stereo not drawn)	0.6%
35	CCOc1ccccc1OCC(=O)NNC(=S)NC1CCCCC1	i
36	COc1ccc(NC(=O)CN(c2ccccc2Cl)S(C)(=O)=O)cc1	i
37	Cc1cccc(C)c1N1CCN(S(=O)(=O)c2ccc(F)cc2)CC1	0.2%
38	CCc1cccc(C)c1NC(=O)C1CC(=O)N(c2ccc(Br)cc2)C1 (stereo not drawn)	i
39	Cc1ccc(C)c(C(=O)CCC(=O)Nc2ccc(F)cc2)c1	i
40	CCSc1ccccc1C(=O)Nc1cccc(OC)c1	i
41	CCOC(=O)c1ccccc1NS(C)(=O)=O	i
42	Cc1ccc([N+](=O)[O-])cc1NC(=O)C1CCN(S(C)(=O)=O)CC1	i
43	O=C(Oc1c(Cl)cc(Cl)c2cccnc12)c1ccccc1[N+](=O)[O-]	0.2µg/mL*
44	COc1cc(C(=O)Nc2ccc(O)c(C)c2)cc(OC)c1OC	i
45	COc1cc(C)c(Cl)cc1S(=O)(=O)Nc1ccccc1O	i
46	CCSc1nnc(NC(=O)CCCC(=O)O)s1	i
47	C=CCc1cccc2cc(C(=O)NCC3CCCO3)c(=O)oc12 (stereo not drawn)	i
48	O=C(CN1C(=O)c2ccccc2S1(=O)=O)NCCc1ccccc1	i
49	O=S(=O)(Nc1nccs1)c1ccc(NS(=O)(=O)c2cccs2)cc1	i
50	O=C1CSc2nnc(-c3ccccc3Br)n2N1	i
51	COc1ccc(OC)c(NS(=O)(=O)c2cc(C)ccc2OC)c1	i
52	CC(=O)c1cc(C)ccc1OC(=O)CCN1C(=O)C2C3c4ccccc4C(c4ccccc43)C2C1=O (stereo not drawn)	i
53	Cc1ccc(C2=C[N+](=O)C(C)(C)C(C)(C)N2[O-])cc1	i
54	O=C(O)c1ccc(NC(=S)NC(=O)c2ccccc2Br)cc1	2.0%
55	CC(=O)Nc1ccc2nc(NC(=O)c3cccc(F)c3)sc2c1	i
56	CCOC(=O)CC(C#N)c1c[nH]c2ccccc12 (stereo not drawn)	?
57	C=C1C2(C(=O)N3CCN(c4cccc(Cl)c4)CC3)CCC(C2)C1(C)C (stereo not drawn)	4.5%
58	CCc1ccc(-n2c(=S)[nH]c3sc(C)c(C)c3c2=O)cc1	i
59	COc1ccc2cc(-c3nn(-c4ccccc4)cc3CO)ccc2c1	i
60	c1ccc(OCc2nc(-c3ccccn3)no2)cc1	0.5%

(list continues)
#	mol	Mtb growth
61	CN(C)c1ccc(C=C(c2nnnn2-c2ccccc2)c2nnnn2-c2ccccc2)cc1	i
62	CCOC(=O)N1CCN(C(=O)c2ccco2)CC1	0.6%
63	O=C(COc1cccc2ccccc12)Nc1cc(C(=O)O)cc(C(=O)O)c1	i
64	CCC(Sc1n[nH]c(N)n1)C(=O)Nc1ccc(C)cc1C (stereo not drawn)	i
65	Nc1ncnc(Nc2cccc3c2CCCC3)c1[N+](=O)[O-]	i
66	Cc1ccc(C#N)c(SCc2cccc(Br)c2)n1	9.0%
67	COc1ccccc1N(CC(=O)Nc1cc(C(F)(F)F)ccc1Cl)S(C)(=O)=O	3.7%
68	C=CCNC(=O)CN(Cc1cccc(C)c1)S(=O)(=O)c1ccc(C)cc1	i
69	Cc1cccc(-c2nc(C#N)c(NCc3ccccc3Cl)o2)c1	i
70	CCc1c(C)c2ccc(OCC(=O)OC(C)C)c(C)c2oc1=O	?
71	O=C(Nc1ccccc1C(=O)NCCc1ccccc1)c1cccc(Cl)c1	i
72	COc1ccc(NC(=O)C2Cc3ccccc3C(=O)O2)cc1 (stereo not drawn)	i
73	Cc1cccc(C(C)C)c1NC(=O)C(C)SCc1ccccc1 (stereo not drawn)	i
74	COc1c(C)cc(Br)cc1C(=O)Nc1ccccc1N1CCOCC1	i
75	COc1ccc(-c2cc(C(=O)Nc3ccc(N(C)C)cc3)c3ccccc3n2)cc1	i
76	COC(=O)C1=CN(CCc2ccccc2)C=C(C(=O)OC)C1c1ccc(Cl)cc1	i
77	Cc1ccc(S(=O)(=O)Nc2ccc(Nc3ccccc3)cc2)cc1	3.5%
78	Cc1ccccc1OCCCCn1cnc2ccccc21	6.34µg/mL*
79	Cc1ccc(C(=O)N2CCN(C)CC2)c(F)c1F	i
80	COc1ccc(CCNC(=O)C2CCN(C(=O)c3ccccc3C)CC2)cc1	i
81	COc1ccc(OC)c(NC(=O)c2ccc(S(=O)(=O)N3CCOCC3)cc2)c1	i
82	CCc1cccc2ccc(S(=O)(=O)Nc3ccccc3)c(CC)c12	8.9%
83	COc1cc(C#N)ccc1OCC(=O)Nc1cc(Cl)ccc1C	i
84	CCCc1cc(C(N)=O)c(NC(=O)c2ccoc2C)s1	4.4µg/mL*
85	COc1ccccc1CC(=O)N1CCC(Cc2ccccc2)CC1	0.4%
86	COc1ccccc1OCC(=O)Nc1cc(C)ccc1NC(=O)COc1ccccc1	2.9%
87	CCn1c(-c2cccc(C)c2)nc2ccccc21	2.3%
88	COC(=O)CCC(NC(=O)c1cc(C)oc1C)C(=O)OC (stereo not drawn)	i
89	CCc1ccccc1NC(=O)COc1ccccc1CC	5.1%
90	Cc1cc([N+](=O)[O-])ccc1NC(=S)NC(=O)Cc1cccc2ccccc12	3.2%
91	Cc1ccc(-c2nc3ccccc3[nH]2)cc1NC(=O)c1ccco1	i
92	Cc1cc(SCc2ccc([N+](=O)[O-])cc2)nc2ccccc12	0.1%
93	CCOC(=O)c1c(NC(=O)c2oc3cc(C)c(C)cc3c2C)sc(C(C)=O)c1C	i
94	O=C(COc1ccc2ccccc2c1)NCc1cccs1	2.2%
95	Cc1cc(OC(=O)c2ccccc2)c2c(C)cc(=O)oc2c1	i
96	CCOC(=O)c1cccc(NC(=O)Nc2cc(OC)ccc2OC)c1	5.0%
97	Cc1ccc(S(=O)(=O)C2(S(=O)(=O)c3ccc(C)cc3)CCCC2)cc1	2.4%
98	CCOC(=O)C1=C(C)NC(=O)NC1c1ccc(OCC(=O)Nc2cccc(Cl)c2Cl)cc1 (stereo not drawn)	2.9%
99	O=C(OCc1ccccc1F)c1ccc([N+](=O)[O-])cc1Cl	?
100	CC(=O)Nc1cc(Cl)ccc1OS(=O)(=O)c1ccc(C)c(C)c1	i
101	COC(=O)c1ccc(CSc2nc(N)cc(=O)[nH]2)cc1	i
102	C=CCOc1c(Cl)cc(CNCCC)cc1Cl	i
103	CCOC(=O)c1c(NC(=O)c2cccc([N+](=O)[O-])c2)sc(CC)c1-c1ccccc1	23.8%
104	COc1ccc(C(=O)O/N=C(\N)c2ccccc2Cl)cc1OC	1.4%
105	CS(=O)(=O)NCc1ccc(C(=O)NCCOc2ccccc2)cc1	i
106	COC(=O)C1=NN(c2ccc(C)cc2)C2(S1)SC(C(C)=O)=C(C)N2c1ccccc1 (stereo not drawn)	0.3%
107	Cc1cc(C)cc(CSCC(=O)NC2CCCCCC2)c1	i
108	CCN(C(=O)COc1ccc([N+](=O)[O-])cc1)c1ccccc1	i
109	O=C(NCC1OCCc2ccccc21)C(=O)N1CCCCC1 (stereo not drawn)	i
110	COc1c(F)c(F)c(C(=O)Nc2ccc(N3CCN(S(C)(=O)=O)CC3)cc2)c(F)c1F	i

(next part)
#	mol	Mtb growth
111	CC(=O)c1ccc(NC(=O)CSc2n[nH]c(C)n2)cc1	i
112	Brc1cccc(OCCN2CCCCCC2)c1	i
113	COc1cccc(Oc2c(C(F)(F)F)oc3cc(OC(=O)N4CCOCC4)ccc3c2=O)c1	0.0%
114	O=C(COc1ccc(C(=O)Nc2ccc(Cl)cc2)cc1)Nc1ccccc1C(F)(F)F	0.0%
115	COc1ccccc1N1CCN(C2CCN(Cc3ccc([N+](=O)[O-])cc3)CC2)CC1	i
116	CCCC(C)NC(=O)COc1ccc(S(=O)(=O)NC2CCCCC2)cc1Cl (stereo not drawn)	i
117	O=C(CN1C(=O)c2ccccc2C1=O)OCc1cccc(Br)c1	i
118	CC(C)(C)c1ccc(OC(=O)COc2ccc([N+](=O)[O-])cc2)cc1	i
119	COc1cccc(-c2cc(C(=O)N3CCCC3)c3ccccc3n2)c1	i
120	COc1ccccc1CNCc1ccc(F)cc1	i
121	Cc1ccc(N(Cc2ccc(C(=O)NC3CC3)cc2)S(C)(=O)=O)cc1C	i
122	O=S(=O)(Cc1ccccc1Cl)Nc1ccc(F)cc1	i
123	Cc1ccc(NC(=O)N2CCN(C(c3ccccc3)c3ccccc3)CC2)cc1	i
124	Cc1ccc(N2C(=O)CC(Cc3ccccc3)C2=O)cc1C (stereo not drawn)	i
125	O=C(c1nc2ncccn2n1)N1CCc2ccccc2C1	i
126	O=C(CCCC(=O)N1CCC(Cc2ccccc2)CC1)N1CCC(Cc2ccccc2)CC1	12.1µg/mL*
127	O=C(Nc1cccnc1)c1ccc2nc(-c3ccccn3)c(-c3ccccn3)nc2c1	7.1%
128	CCOc1cc(C(=O)Nc2ccc3nn(-c4ccc(OC)cc4)nc3c2)cc(OCC)c1OCC	i
129	Cc1cccc(OCC(=O)NC2CCCCCC2)c1	i
130	Cc1cc(C)c(C)c(Cn2c(C)nc3ccccc32)c1C	2.9%
131	COc1ccc(C(=O)c2oc3ccccc3c2NC(=O)c2ccco2)cc1Cl	i
132	COc1ccc(CCNC(=S)Nc2ccc(-c3nc4ccc(C)cc4s3)cc2)cc1OC	i
133	Cc1ccc(C)c(C(=O)NC(C)c2ccccc2)c1 (stereo not drawn)	i
134	COc1ccc(OC)c(NC(=S)NC(=O)COc2ccc(Br)cc2)c1	i
135	COc1ccc(-c2cc(C(=O)N3CCN(Cc4ccccc4)CC3)c3ccccc3n2)cc1	?
136	Cn1c(=O)c2c(nc(N3CCNCC3)n2C)n(C)c1=O	i
137	O=C(Nc1ccc(Cl)cc1C(F)(F)F)c1cc2ccccc2o1	i
138	COC(=O)Nc1sc2c(c1C(N)=O)CCc1ccccc1-2	i
139	Cc1ccccc1NC(=O)CSCCO	i
140	CCOC(=O)C(C)Sc1nc2ccc(I)cc2c(=O)n1CC (stereo not drawn)	5.6%
141	Cc1ccc(SCC(=O)Nc2ccccc2C(=O)NCc2ccccc2)cc1	i
142	COc1ccc(CC(=O)NC(C)c2ccc3ccccc3c2)cc1 (stereo not drawn)	3.5%

Screening results as filed in PubChem.

A portion of the library, so the mix of outcomes need not match the whole.
